PINK1 expr mod: modulators of PINK1 expression; PINK1 immunofluorescence, high-content cytometry, 24 h; Potency, µM (series often up to 76.6 µM), without a hit: at the highest dose activation (PINK1 increase), usual class: activators; 410,000 compounds, 0.2% hits; AID 624263; active = well fitted activation curve with a large enough effect; inconclusive = small, poorly fitted or top-dose-only effect; inactive = flat fitted curve, though single readings scatter; cell line not stated here;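 note: potency is the fitted concentration of half-maximal effect; % of control where 0% means no effect; nearly all actives have a fitted effect of over 65% in size; a mitochondrial uncoupler was the plate control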
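Readout is PINK1 immunofluorescence, quantified alongside mitochondrial, cell and nuclear markers by laser-scanning microplate cytometry. Cells from a stable line were exposed to compound titrations (5 concentrations) for 24 hours, with CCCP controls.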
TRPML1 agonist: agonists of human TRPML1 channel. Q9GZU1. TRPML1-expressing cells, Ca2+ dye fluorescence, FDSS; host cell line not named in the record; reference of the full effect not given here. activation, % (test concentration not listed). 410,000 compounds, 0.12% hits. AID 624414; in the data active = activation above about 50%; inconclusive = about 30% to 50%; inactive = below about 30%; note: 0% is about no effect; the text of the record puts the active cut at 80%
Target sequence (Q9GZU1 whole entry, looked up): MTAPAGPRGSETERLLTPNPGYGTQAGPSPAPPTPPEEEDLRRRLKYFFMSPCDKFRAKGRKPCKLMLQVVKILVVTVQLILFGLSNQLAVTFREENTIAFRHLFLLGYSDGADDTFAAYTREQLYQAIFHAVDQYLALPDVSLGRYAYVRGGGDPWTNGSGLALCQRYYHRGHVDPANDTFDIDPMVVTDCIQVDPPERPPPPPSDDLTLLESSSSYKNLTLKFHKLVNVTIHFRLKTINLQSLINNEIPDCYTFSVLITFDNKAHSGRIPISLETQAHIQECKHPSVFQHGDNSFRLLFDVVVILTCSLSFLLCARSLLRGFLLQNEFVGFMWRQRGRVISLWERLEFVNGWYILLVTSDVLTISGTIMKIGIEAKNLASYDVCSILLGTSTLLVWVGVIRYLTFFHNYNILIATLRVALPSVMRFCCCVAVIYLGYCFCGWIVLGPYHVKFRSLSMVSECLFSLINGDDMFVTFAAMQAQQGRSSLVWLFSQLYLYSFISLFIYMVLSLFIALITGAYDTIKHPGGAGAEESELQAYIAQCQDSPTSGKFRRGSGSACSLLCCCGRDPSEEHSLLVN
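Kinetic FDSS Ca2+ read in Tet-induced TRPML1-DL cells (ABD Ca8 dye plus quencher, 45-90 min RT loading): baseline, then compound, then 110 s agonist window; EC80 agonist 54-4 at 4uM final added afterwards for a 110 s antagonist window.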
The depositor's hits bear a star; ? = inconclusive. A portion of the library; count on the stated rates, not on these rows.

Under each structure – PINK1 expr mod, TRPML1 agonist
> COc1ccccc1N1CCN(c2ncnc3onc(C)c23)CC1
 : -1.3%, -0.5
> COc1cc2[nH]c(=O)n(Cc3ccc(C(=O)NCc4ccccc4)cc3)c(=O)c2cc1OC
 : 8.8%, -0.6
> Cc1noc2ncnc(N3CCCC(C(=O)NCCC(C)C)C3)c12 (stereo not drawn)
 : -0.5%, -0.5
> C(=C\c1c[nH]c2ccccc12)/c1ccnc2ccccc12
 : 0.9%, 1.4
> CC1CCN(S(=O)(=O)c2ccc3c(c2)CCC(=O)N3CC(=O)Nc2cccc(C#N)c2)CC1
 : 1.6%, 0.3
> Cc1c(C(=O)N(C)C)sc2c1c(=O)n(-c1ccc(F)cc1)c(=O)n2Cc1cc(=O)n2ccccc2n1
 : 1.4%, 0.4
> Brc1cccc(-c2nnn3c2nc(NC2CCCCC2)c2ccccc23)c1
 : 6.4%, -0.8
> COc1ccc(S(=O)(=O)NCCc2csc3nc(-c4cccc(C)c4)nn23)cc1F
 : 1.8%, 4.9
> CCCCNC(=O)Cn1ncc2c(C)n(Cc3cccc(Cl)c3)c(C)c2c1=O
 : -1.7%, -1.1
> O=C(Nc1cc(C(F)(F)F)ccc1Cl)c1cc(S(=O)(=O)NCc2ccccc2)ccc1F
 : 9.8%, 1.1
> Cc1cn2c(=O)c(S(=O)(=O)Nc3ccc(N4CCOCC4)cc3)c(C)nc2s1
 : 1.5%, -0.4
> CC(=O)c1c(C)oc2c1cc(NS(=O)(=O)c1c(C)cc(C)cc1C)c1ccccc12
 : -1.1%, 1.3
> CCOCCCN(Cc1ccco1)C(=O)c1cc2c(s1)-c1c(C)cccc1OC2
 : 13%, 2.1
> Cc1cccc(N2CCN(Cc3nnc(-c4cccc(Br)c4)o3)CC2)c1C
 : -2.0%, 0.0
> COc1ccc(-c2nc(SCC(=O)N3CCC(C)CC3)n[nH]2)cc1
 : 0.5%, -0.3
> CCOC(=O)C1CCN(c2ncnc3c2nc2n3CCCCC2)CC1
 : 0.1%, -0.9
> COC(=O)c1scc(-c2ccc(C)cc2)c1S(=O)(=O)N1CCN(c2cccc(OC)c2)CC1
 : 1.1%, 0.5
> COc1ccc(-n2c(SCC(=O)NCc3ccc(C)cc3)nc3n[nH]c(C)c3c2=N)cc1
 : 2.9%, 2.6
> COc1ccc(-c2nc(S(=O)(=O)c3ccccc3)c(N3CCCCC3)o2)cc1
 : 2.1%, 1.1
> Cc1cc(F)ccc1NC(=O)C1CCCN(c2nnc(-n3c(C)ccc3C)s2)C1 (stereo not drawn)
 : 0.3%, -0.9
> COc1ccc(CCNc2ncnc3c2c(-c2ccccc2)cn3-c2ccc(F)cc2)cc1OC
 : -0.1%, 64*
> COc1ccccc1Nc1cc(C(=O)NCCCN(C)c2ccccc2)c2ccccc2n1
 : 1.6%, 0.8
> CCc1ccc(-n2nc3ccc(NC(=O)c4cc5ccccc5o4)cc3n2)cc1
 : 4.5%, 0.6
> COc1ccc(-c2cn3nc(N4CCCC(C(=O)NCc5ccccc5Cl)C4)sc3n2)cc1 (stereo not drawn)
 : 0.7%, 0.3
> CCCN1CNc2c(c(=O)[nH]c(=S)n2CCc2ccsc2)C1
 : 0.4%, -0.8
> Cn1nnc2c(NCc3ccccc3Cl)ncnc21
 : 17%, 0.2
> CN1CC2(Cc3cc([N+](=O)[O-])ccc31)C(=O)OC(C)(C)OC2=O
 : -1.1%, 0.7
> COc1cc(N(C)C)ccc1/C=C/c1ccnc2ccccc12
 : 3.6%, ?
> CC(C)c1nn2c(=O)cc(COC(=O)c3ccc(NC(=O)c4ccccc4Cl)cc3)nc2s1
 : 0.4%, 2.1
> CCc1cccc(-n2nnc(-c3nc(-c4cccs4)no3)c2N)c1
 : 2.4%, -0.2
> Cc1ccccc1NC(=O)Cn1c(=O)n(Cc2ccco2)c(=O)c2ccc(C(=O)NC3CCCC3)cc21
 : ?, 0.9
> O=S(=O)(c1ccc(-c2cnc(C3CC3)o2)cc1)N1CCN(c2cccc(Cl)c2)CC1
 : 5.5%, -0.9
> COCCCNC(=O)CN1C(=O)c2cccnc2Sc2ccccc21
 : 0.8%, 0.7
> Cc1ccc(CSCC(=O)N2CCN(c3ccccc3F)CC2)cc1
 : -0.5%, 3.1
> COc1ccccc1-c1cc2nc(C)c(CCC(=O)NCCc3ccc(SC)cc3)c(C)n2n1
 : 1.9%, -0.7
> CCOc1ccc(N(CC(=O)Nc2ccc(F)cc2F)S(=O)(=O)c2c(C)[nH]c(=O)[nH]c2=O)cc1
 : 0.5%, -0.4
> COc1ccccc1CNC(=O)CCCCn1c(=O)c2ccccc2n(CC(=O)Nc2cccc(Cl)c2)c1=O
 : 1.4%, 0.0
> CCc1ccc2occ(CC(=O)Nc3c(C(=O)Nc4ccc(Cl)cc4)oc4ccccc34)c2c1
 : 7.5%, 1.0
> CCCCNC(=O)c1ccc(-c2nc(CN3CCc4ccccc43)c(C)o2)cc1
 : 4.2%, 1.6
> Cc1ccc(CNCc2c(C(=O)O)n(Cc3ccccc3C)c3cc(C)ccc23)cc1
 : -0.7%, 3.2
> Cc1cccc(N2CCN(C(=O)c3c4c(nc5ccccc35)C(=O)N(C3CCCCC3)C4)CC2)c1C
 : 1.3%, 0.5
> COC(=O)c1ccc(NC(=O)CSc2n[nH]c(-c3ccccc3)n2)cc1
 : 1.9%, 0.0
> CC(=O)Nc1ccc(NC(=O)C2(c3cccs3)CCOCC2)cc1
 : -0.1%, -0.2
> CNc1ccc(/C=C/c2ccnc3ccccc23)cc1
 : 2.0%, 24
> CCOc1ccc(NC(=O)Cn2nc(-c3ccncc3)ccc2=O)cc1
 : 4.7%, -0.3
> COc1cccc(CNC(=O)Cc2csc3ccccc23)c1OC
 : -0.7%, 1.0
> COCCNC(=O)c1cc(Sc2ccc(F)cc2F)nc2ccccc12
 : -1.1%, -0.5
> Cc1cc(C)cc(NS(=O)(=O)c2ccc3[nH]cc(C(=O)NCc4ccccc4Cl)c(=O)c3c2)c1
 : 19%, 3.2
> COc1cc(Cl)c(C)cc1NC(=O)CCCN1C(=O)C(c2ccccc2)Oc2cccnc21 (stereo not drawn)
 : 1.0%, 1.5
> CC1=C(C(=O)Nc2cc(Cl)ccc2C)C(c2ccco2)n2ncnc2N1 (stereo not drawn)
 : -5.2%, 0.6
> COCCCNC(=O)C(=O)NCC(c1ccc2c(c1)OCO2)N1CCOCC1 (stereo not drawn)
 : -1.2%, 0.8
> CCOc1ccc(N2CC(c3nc4ccccc4n3Cc3cccc(C)c3)CC2=O)cc1 (stereo not drawn)
 : 0.5%, 0.3
> Cc1cc(Nc2cccc(C(=O)O)c2)n2nc(C)nc2n1
 : -1.7%, -0.4
> CCC(=O)N1c2ccc(S(=O)(=O)CCC(=O)N3CCN(c4cc(C)ccc4C)CC3)cc2CC1C (stereo not drawn)
 : 0.0%, -0.5
> COc1ccc(C2(N3CCN(c4cc(C)ccc4C)CC3)C(=O)c3ccccc3C2=O)cc1
 : 6.5%, 1.0
> CCC(Sc1nc2c(sc3ccccc32)c(=O)n1CCc1ccc(OC)c(OC)c1)C(=O)N(CC)CC (stereo not drawn)
 : 3.7%, 0.0
> O=C(O)CSc1nc2ccccc2nc1N1CCCCC1
 : 0.0%, -0.2
> CCOc1ccc(NC(=O)Cn2c(=O)n(Cc3ccccc3)c(=O)c3c4c(sc32)CN(C(C)=O)CC4)cc1
 : 0.8%, -0.4
> O=S(=O)(c1ccc(C2CCCCC2)cc1)N1CCN(c2cc(Cl)ccc2Cl)CC1
 : -0.8%, 1.1
> Cc1cccc(N2CCN(C(=O)c3cccn3-c3nnc(N4CCCCC4)s3)CC2)c1C
 : 2.0%, 3.4

Profiles from above.
COC(=O)c1scc(-c2ccc(C)cc2)c1S(=O)(=O)N1CCN(c2cccc(OC)c2)CC1 across the screens: PINK1 expr mod = 1.1%; TRPML1 agonist = 0.5
CCC(=O)N1c2ccc(S(=O)(=O)CCC(=O)N3CCN(c4cc(C)ccc4C)CC3)cc2CC1C (stereo not drawn) across the screens: PINK1 expr mod = 0.0%; TRPML1 agonist = -0.5
CCOC(=O)C1CCN(c2ncnc3c2nc2n3CCCCC2)CC1 across the screens: PINK1 expr mod = 0.1%; TRPML1 agonist = -0.9

Other entries
SMILES	PINK1 expr mod	TRPML1 agonist
CC1=C(C(=O)OCC2CCCCC2)C(c2c(F)cccc2Cl)CC(=O)N1 (stereo not drawn)	2.9%	0.5
COc1ccc(CCNC(=O)c2ccc(-n3c(C)cc4c3CCC(C)C4)cc2)cc1OC (stereo not drawn)	3.8%	1.1
COc1cccc(NC(=O)Cn2c(=O)n(-c3cccc(OC)c3)c(=O)c3sc4ccccc4c32)c1	1.2%	0.9
CCc1ccc(NC(=O)CSC2=Nc3ccccc3C3=NC(CC(=O)NCc4cccs4)C(=O)N23)cc1 (stereo not drawn)	0.5%	1.2
COc1cccc(CNS(=O)(=O)c2ccc(N3CCCCS3(=O)=O)cc2)c1	2.2%	-0.4
Cc1nn(-c2ccc(N3CCCCC3)nn2)c(C)c1CCC(=O)Nc1ccc(F)cc1F	3.5%	0.2
CCC(Cc1ccccc1)NC(=O)Cn1ncc2c3ccccc3n(Cc3ccc(F)cc3)c2c1=O (stereo not drawn)	-1.2%	0.5
CCCn1c(=O)c2sccc2n2c(CCCC(=O)N3CCN(c4cccc(C)c4C)CC3)nnc12	-1.5%	1.5
CN(C(=O)CSc1nc2ccc(NC(=O)COc3ccc(Cl)cc3)cc2s1)c1ccccc1	3.5%	1.0
O=C(NCc1ccccc1)C(=O)Nc1c2c(nn1-c1ccccc1)CSC2	9.7%	0.3
COc1ccc(S(=O)(=O)c2cn(CC(=O)Nc3cc(C)ccc3C)c3ccccc3c2=O)cc1	3.4%	-0.6
Cc1ccc(CNC(=O)c2ccc3c(O)c(S(=O)(=O)c4ccccc4)c(=O)[nH]c3c2)cc1	-0.2%	-0.5
Cc1cccc(OCc2nc(CC(=O)Nc3ccc(Cl)cc3)cs2)c1	7.1%	1.4
Cc1c(C(=O)N2CCCCCC2)c(S(=O)(=O)Nc2ccc(OC(F)(F)F)cc2)c(C)n1C	-2.0%	0.9
CCc1ccc(CNC(=O)CN2C(=O)c3cccnc3Oc3ccc(Cl)cc32)cc1	-0.5%	2.9
Cc1ccc(-c2nn(CC(=O)NC3CCCCC3)c3c2cnc2ccc(F)cc23)cc1C	2.0%	1.1
Cc1ccccc1-c1nc(CNC(=O)NC2CCCCC2)c(C)o1	0.0%	0.2
CCC(Sc1nc2cc(OC)c(OC)cc2c2nc(-c3ccccc3)nn12)C(=O)Nc1cccc(C)c1 (stereo not drawn)	0.2%	-0.3
Cc1cc2ccccc2n1CCNC(=O)c1ccc(F)cc1	-0.3%	-1.3
COc1ccc(F)cc1S(=O)(=O)NCCc1c(C)[nH]c2c(Cl)cccc12	0.2%	-0.3
CC[N+](CC)(CC)c1ccc(/C=C/c2ccc3ccccc3n2)cc1	?	-0.7
CCCCCCNc1nc2c(c(=O)n(C)c(=O)n2C)n1Cc1cccc(C)c1	-0.3%	1.9
COCCOC(=O)C1=C(C)N=C2SCCC(=O)N2C1c1ccc(OCc2ccccc2)c(OC)c1 (stereo not drawn)	0.3%	-1.2
COc1cccc(C(=O)Nc2ccc(-c3nc4ccccc4s3)cc2Cl)c1	6.9%	1.5
CN1C(=O)c2ccccc2Sc2ccc(NC(=O)Cc3c(F)cccc3Cl)cc21	5.9%	1.1
COC(=O)c1sccc1S(=O)(=O)N(CC(=O)NCc1ccc(C)cc1)c1ccccc1	5.4%	0.5
COc1cccc(CNC(=O)Nc2cc(C(=O)NCc3cccc(F)c3)ccc2N2CCCC2)c1	-0.8%	2.1
O=C(Nc1ccc(S(=O)(=O)N(Cc2ccccc2)c2ccccc2)cc1)c1ccc(F)cc1	3.4%	-0.3
COc1ccc(CCNC(=O)CCc2c(C)c3cc4c(C)c(C)oc4cc3oc2=O)cc1OC	-0.8%	-0.8
CCCCC(=O)Nc1ccc2nc(SCC(=O)N3CCOCC3)sc2c1	3.8%	3.6
CN(Cc1ccccc1)C(=O)CSc1nc2ccccc2n1Cc1ccccc1F	1.1%	0.2
COc1cccc(C(=O)c2cn(CC(=O)Nc3cccc(C(F)(F)F)c3)c3nc(C)ccc3c2=O)c1	17%	4.6
O=S(=O)(NCCc1nnc2ccc(SCc3ccccc3Cl)nn12)c1ccccc1	1.2%	-0.3
CCC(C(=O)Nc1ccc(C)c(C)c1)n1c(=O)c(C(F)(F)F)nc2ccccc21 (stereo not drawn)	2.3%	-1.2
CC(C)c1ccc(OCC(=O)Nc2cc(-c3ccccc3)no2)cc1	2.8%	-0.2
O=C(NCc1ccc(Cl)cc1)c1cnc(N2CCCCC2)c2ccccc12	0.6%	1.4
CCn1cc(C(=O)NCCc2ccc(Cl)cc2)c(=O)c2cc(S(=O)(=O)N3CCOCC3)ccc21	2.8%	0.2

As a working copy, 2 of the compounds above.
SMILES	PINK1 expr mod	TRPML1 agonist
O=C(NCc1ccc(Cl)cc1)c1cnc(N2CCCCC2)c2ccccc12	0.6%	1.4
CCn1cc(C(=O)NCCc2ccc(Cl)cc2)c(=O)c2cc(S(=O)(=O)N3CCOCC3)ccc21	2.8%	0.2

Part of the list above, field by field:
O=S(=O)(NCCc1nnc2ccc(SCc3ccccc3Cl)nn12)c1ccccc1
  PINK1 expr mod: 1.2%	TRPML1 agonist: -0.3
CCC(C(=O)Nc1ccc(C)c(C)c1)n1c(=O)c(C(F)(F)F)nc2ccccc21 (stereo not drawn)
  PINK1 expr mod: 2.3%	TRPML1 agonist: -1.2

Screens deposited in PubChem by National Center for Advancing Translational Sciences (NCATS).
